D2 agonist: Beta-Arrestin HTS for Positive Allosteric Modulators of the Human D2 Dopamine Receptor: Agonists | D(2) dopamine receptor (Homo sapiens), P14416 | DiscoveRx PathHunter D2 beta-arrestin, luminescence, 90 min; 100% = 57 uM dopamine signal | activation, % (concentration not given with the values) | 0.084% of 360,000 active | AID 624465, 2012; in the data active = activation above about 40%; inconclusive = about 15% to 40%; inactive = below about 15%; also: compound concentration not given in the record; the text of the record calls up to 30% inactive
Target sequence (P14416 whole entry, looked up): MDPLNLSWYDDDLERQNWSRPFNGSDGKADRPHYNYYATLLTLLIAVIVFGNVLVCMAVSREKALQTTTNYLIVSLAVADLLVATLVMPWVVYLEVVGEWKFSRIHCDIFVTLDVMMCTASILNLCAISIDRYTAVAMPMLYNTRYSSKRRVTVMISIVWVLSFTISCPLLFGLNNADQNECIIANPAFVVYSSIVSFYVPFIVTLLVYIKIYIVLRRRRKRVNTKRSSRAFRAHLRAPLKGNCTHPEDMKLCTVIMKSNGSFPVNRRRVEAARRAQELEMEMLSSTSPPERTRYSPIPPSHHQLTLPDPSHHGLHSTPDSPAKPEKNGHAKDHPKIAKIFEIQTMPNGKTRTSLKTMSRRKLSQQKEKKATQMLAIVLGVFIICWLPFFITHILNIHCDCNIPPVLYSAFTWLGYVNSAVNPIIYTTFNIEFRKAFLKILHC
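DiscoveRx PathHunter D2 beta-arrestin cells (2,100/well) attached overnight, then compound-stimulated 90 min at 37 C in HBSS/10 mM HEPES/0.1% Tween-20 buffer; beta-galactosidase complementation read by luminescence after 1 h at ambient temperature. Dopamine 57 uM final (EC100) as control.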
gsp agonist: qHTS for Agonist of gsp, the Etiologic Mutation Responsible for Fibrous Dysplasia/McCune-Albright Syndrome: qHTS; gsp mutant cells, cAMP HTRF, 30 min; control for the full effect not named in the record; Potency, µM (top dose mostly 76.9 µM), for inactives: top-dose activation (cAMP increase), usual class: activators; 0.13% of 340,000 active; AID 624287, 2012; active = well fitted activation curve with a large enough effect; inconclusive = small, poorly fitted or top-dose-only effect, or another doubt; inactive = no such curve, though single readings can be large or run the other way; cell line not stated here;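 also: phosphodiesterase inhibitor Ro 20-1724 added with compounds to block cAMP breakdown; potency is read from the fitted curve at half-maximal effect; nearly all actives have a fitted effect of over 60% in size; about a fifth of the inactives were tested at one dose only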
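Cells in DMEM/10% FBS with G418 were pretreated with compounds in DMSO plus […] (300 uM stock) for 30 min at 37C. cAMP was measured by HTRF (cAMP-d2 plus anti-cAMP antibody-K) after 30 min at room temperature.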
ClpP mod: qHTS Assay for Activators of ClpP | purified B. subtilis ClpP, FRET peptide cleavage, 20 min | Potency, µM (top dose mostly 57.5 µM), inactives show top-dose activity change, negative = active | ATP-dependent Clp protease proteolytic subunit (Bacillus subtilis (strain 168)), P80244 | 1.9% of 340,000 active; active = well fitted falling curve with a large enough effect; inconclusive = small, poorly fitted or top-dose-only effect; inactive = no such curve, though single readings can be large or run the other way; also: potency is read from the fitted curve at half-maximal effect; the source files actives as falling curves though it sought activators and does not explain the sign; nearly all actives have a fitted effect of over 65% in size; many hits overshoot -100%
Target sequence (P80244 whole entry, looked up): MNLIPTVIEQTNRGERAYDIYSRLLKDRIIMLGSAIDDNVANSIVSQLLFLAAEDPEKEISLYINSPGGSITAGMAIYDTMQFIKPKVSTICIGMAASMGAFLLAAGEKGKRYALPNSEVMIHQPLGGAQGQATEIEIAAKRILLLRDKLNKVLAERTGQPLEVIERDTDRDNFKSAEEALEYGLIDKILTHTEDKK
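Purified B. subtilis ClpP, 10 microg/mL final in Tris/HCl pH8 with KCl, BSA, glycerol and Tween-20, cleaved an Abz/nitrotyrosine-quenched decapeptide. Fluorescence (ex 320, em 430) was read at 0 and 20 min at room temperature. Delta was normalized to 5.8 microM ADEP and DMSO/no-enzyme controls.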
PINK1 modulator: A Quantitative High throughput Screen to Identify Chemical Modulators of PINK1 Expression | 0.2% of 410,000 active | Potency, µM (highest dose often 76.6 µM), without a hit: at the highest dose activation (PINK1 increase), actives largely listed as activators | PINK1 immunofluorescence, high-content cytometry, 24 h; active = well fitted activation curve with a large enough effect; inconclusive = small, poorly fitted or top-dose-only effect; inactive = flat fitted curve, though single readings scatter; cell line not stated here;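 also: potency is read from the fitted curve at half-maximal effect; % of control where 0% means no effect; nearly all actives have a fitted effect of over 65% in size; a mitochondrial uncoupler was the plate control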
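Cells are seeded, rested 12 hours, then given compound at five concentrations or DMSO for 24 hours. After fixation, blocking and antibody staining, PINK1 amount and mitochondrial localization are scored; CCCP serves as control.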
Menin-MLL FL inh: qHTS Assay for Inhibitors Targeting the Menin-MLL Interaction in MLL Related Leukemias: Competition With Fluorescein Labeled MLL-derived Peptide; Fluorescence polarization, fluorescein-MLL peptide displacement from menin; 290,000 tested, under 10 active; AID 1766, 2009; FP activity change, % at 61.4 µM; inconclusive = falling polarisation curve, or a change in total fluorescence; inactive = total fluorescence flat and polarisation flat or rising; no compound was filed as active; the % refers to the polarisation; negative = inhibition;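 also: % of control where 0% means no effect; inhibitors lower the polarisation; unlabelled MLL peptide was the positive control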
Sfp PPTase inh: qHTS Assay for Inhibitors of Bacillus subtilis Sfp phosphopantetheinyl transferase (PPTase) | 4'-phosphopantetheinyl transferase ffp (Bacillus subtilis), Q9F4F7 | Biochemical Sfp PPTase activity, qHTS | Potency, µM, inactives show max response, negative = inhibition, usual class: inhibitors | 3.5% of 310,000 active; active = well fitted inhibition curve with a large enough effect; inconclusive = small, poorly fitted or top-dose-only effect, or another doubt; inactive = no such curve, though single readings can be large or run the other way;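 also: the enzyme is Sfp with the accession as filed and its product quenches rhodamine fluorescence; potency is read from the fitted curve at half-maximal effect; 0% = enzyme reaction without inhibitor and -100% = no enzyme wells; top concentration of the series not given in the record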
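Buffer: 50 mM Hepes-Na pH 7.6, 10 mM MgCl2, 0.01% Nonidet P-40, 0.01% BSA. Enzyme 15 nM, pre-exposed to compound 15 min; substrates then added and fluorescence change tracked over 30 min.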
gsp antagonist: qHTS for Antagonists of gsp, the Etiologic Mutation Responsible for Fibrous Dysplasia/McCune-Albright Syndrome: qHTS | gsp-mutant cells, cAMP HTRF, 30 min; control for the full effect not named in the record | Potency, µM (doses to about 76.9 µM), inactives show top-dose activity change, negative = inhibition, actives largely listed as inhibitors | 0.4% of 340,000 active | AID 624288, 2012; active = falling curve of any shape with a large fitted effect; inconclusive = falling curve, mostly with a smaller effect; inactive = flat or rising curve; cell line not stated here;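 also: intracellular cAMP measured with PDE inhibitor Ro 20-1724 present during compound exposure; potency is read from the fitted curve at half-maximal effect; % is scaled to controls: 0 for no effect and ±100 for the full control effect; nearly all actives have a fitted effect of over 65% in size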
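G418-selected cells were plated in DMEM/10% FBS for 16-24 h at 37C, then treated with compounds plus the PDE inhibitor […] (300 uM solution added) for 30 min at 37C. Intracellular cAMP was measured by HTRF after 30 min lysis at room temperature.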
An asterisk follows results filed as active; ? = inconclusive; . = no result given; & = joins results of further samples; [ ] = another dose, or the depositor's remark.

SMILES	D2 agonist	gsp agonist	ClpP mod	PINK1 modulator	Menin-MLL FL inh	Sfp PPTase inh	gsp antagonist
COc1ccc(/C=C(\C#N)C(=O)Nc2cccnc2)cc1	-1.7	1%	1.0%	-1.1%	2.9	-1%	4%
COC(=O)CCC(=O)OC1(C)C(=O)C2=CN(c3ccccc3)C(c3ccc(OC)cc3)=CC2=C(Br)C1=O (stereo not drawn)	5.9	7%	-0.7%	1.3%	13[11.7 µM]	-25%	?
Clc1ccc2noc(-c3ccccc3)c2c1	0.1	-2%	0.2%	1.3%[38.3 µM]	2.3	?	9%
CCC/C(O)=C1\C(=O)CCCC1=NCCc1ccc(OCC)c(OCC)c1	-2.4	28%[15.4 µM]	.	0.4%	-0.3	13%	?
CC(=O)NCCn1c(SCc2cc(=O)n3cc(Cl)ccc3n2)nc2ccccc2c1=O	-2.1	26%	-3.3%	-0.4%	2.9	4%	13%
C=CCn1c(C(CCCC)CC(O)COCCC)n[nH]c1=S (stereo not drawn)	-1.5	-68%[inhibitor]	1.2%	1.7%	-3.3	-17%	19%
CCc1ccc(-n2c(SCC(=O)NC3CCS(=O)(=O)C3)nc3ccccc3c2=O)cc1 (stereo not drawn)	4.2	28%	1.2%	1.7%	.	.	-15%
O=C(Cn1ncc2c(=O)oc3ccccc3c21)N1CCN(C(=O)c2ccco2)CC1	-2.1	17%	0.2%	0.4%	7.9	11%	-2%
CC(OC(=O)CC1Sc2ccccc2NC1=O)C(=O)NC1CCCC1 (stereo not drawn)	-0.6	7%[15.4 µM]	0.6%	3.2%	-0.3	-12%	-9%
CCCC(C)n1[nH]c(=O)c2c(C)cc(C)nc21 (stereo not drawn)	0.1	2%	-2.2%	8.9%	0.9	13%	3%
CCc1ccc(N(CC(=O)N2CCN(Cc3ccccc3)CC2)S(C)(=O)=O)cc1	-6.0	?	0.5%	3.0%	-2.9	-7%	-2%
O=C(CSc1c[nH]c2ccccc12)N1CCCc2ccccc21	0.3	-98%[inhibitor]	0.4%	3.8%	1.4	10%	1%
COc1cc(/C=C2\COC/C(=C\c3cc(OC)c(OC)c(OC)c3)C2=O)cc(OC)c1OC	-2.5	14%	.	6.3%	-2.8	?	?
Cc1ccc(S(=O)(=O)N(C)C)cc1NC(=S)NCc1ccco1	-3.8	-2%[15.4 µM]	0.6%	-0.4%	7.0	-12%	-3%
COc1cc(CC(=O)Nc2ccc(S(=O)(=O)N(C)C)cc2)cc(OC)c1OC	-1.1	-12%	-0.3%	3.0%[38.3 µM]	-2.8	-28%	0%
CCN(CC(=O)NC)S(=O)(=O)c1ccc(Br)cc1	-3.3	23%	1.6%	3.8%	-0.9	11%	0%
CS(=O)(=O)N1CCN(C(=O)c2cc3ccccc3oc2=O)CC1	-0.5	-8%	-13%	-3.6%[38.3 µM]	3.9	-28%	0%
CSc1nnc(C)c(/C=C/Nc2ccc(C)cc2)n1	-5.8	29%	-0.5%	18%	?	-5%	-1%
CCOC(=O)N1CCN(C(=S)NC(=O)C2CCCC2)CC1	-1.3	-2%	-0.6%	-0.2%	-1.3	26%	4%
COC(=O)N/N=C(C)\C=C\c1ccco1	-0.7	-17%	-0.2%	2.1%	-1.4	10%	-4%
CCC(C(=O)Nc1cc(Cl)ccc1OC)c1ccccc1 (stereo not drawn)	-3.6	16%	-3.7%	5.8%	0.0	1%	-10%
Cc1ccc(N2C(S)=C(C#N)C(=O)NC2c2cccs2)cc1 (stereo not drawn)	-8.0	-24%	0.8%	-0.7%	-1.5	35µM*	-11%
O=c1c2ccccc2nnn1COc1cccc2ccccc12	-0.4	-33%[inhibitor]	2.1%	2.9%	2.7	5%	-17%
Cc1ccc(-c2ccc(S(=O)(=O)NCC3CCCO3)cc2)cc1 (stereo not drawn)	0.4	13%	-0.2%	-2.6%	-1.6	11%	4%
COc1ccc(-c2cn(/N=C/c3ccc(Cl)cc3Cl)c(N)n2)cc1	-1.2	-17%	1.3%	.	0.9	2%	-13%

More structures follow.
SMILES	D2 agonist	gsp agonist	ClpP mod	PINK1 modulator	Menin-MLL FL inh	Sfp PPTase inh	gsp antagonist
C(=N\n1cncn1)/c1ccc(N2CCOCC2)cc1	-0.1	2%	?	-2.2%	-4.4	25%	7%
c1cnc2ccc(C(c3nnnn3C3CCCCC3)N3CCN(C4CCCCC4)CC3)cc2c1 (stereo not drawn)	-3.0	-1%	5.6%	2.2%	.	.	7%
O=C(NC(=S)Nc1nc2ccccc2s1)c1ccco1	-6.2	?	.	2.1%	4.5	?	-15%
COc1ccc(S(=O)(=O)NCCSc2ccccc2)cc1OC	-1.6	4%	0.3%	-4.1%	2.3	3%	-14%
CC(=O)N1CSCC1C(=O)NNS(=O)(=O)c1ccccc1 (stereo not drawn)	0.5	1%[15.4 µM]	.	1.0%	0.9	7%	14%
COc1ccc([N+](=O)[O-])cc1NC(=O)CCN1CCN(CCO)CC1	-1.1	-23%	0.9%	-0.9%	.	13%	7%
CCN1CCCC1CNC(=O)Cn1cc(C)c(=O)[nH]c1=O (stereo not drawn)	-0.1	.	-3.9%	0.7%	.	.	8%
CC(=O)Nc1ccc(NC(=O)COC(=O)c2ccc([N+](=O)[O-])o2)cc1	6.6	4%[15.4 µM]	.	1.7%	.	.	5%
COc1ccc(Cn2c(CO)cnc2SCC(=O)Nc2cccc(NC(C)=O)c2)cc1	-5.2	4%	-1.5%	0.4%	.	-3%	4%
COCCNC(=O)CCC(=O)NNc1nc2ccccc2c2nc(-c3ccccc3)nn12	-3.3	-3%[15.4 µM]	2.0%	0.3%&3.0%	-0.3	17%	-2%
COCCCN(C(=S)Nc1ccc(OC)cc1)C(C)c1ccncc1 (stereo not drawn)	-3.5	-14%[15.4 µM]	.	3.0%	0.6	10%	-4%
COc1cc(C(=O)OC2CC[C@]3(C)C4CCC5[C@]6(O)CC(O)[C@]7(O)C(CN8CC(C)CCC8[C@]7(C)O)[C@]6(O)C[C@@]53O[C@]24O)cc(OC)c1OC (stereo partly drawn)	.	.	.	-0.8%	-0.9	2%	.
CC(C)(C)c1ccc(S(=O)(=O)NC(=O)C2(C)CCN2C(=O)Cc2ccccc2Cl)cc1 (stereo not drawn)	-5.4	.	-1.1%	2.0%	.	.	.
CCOC(=O)N1CCC(NC(=O)c2cc(C(=O)NC3CCN(Cc4ccccc4)CC3)ccc2CO)CC1	-0.6	-24%	.	1.0%	-1.2	-3%	7%
Cc1ccc(N2CCC(N3CCN(C4CCCCC4)C(CCO)C3)CC2)cc1 (stereo not drawn)	2.4	-8%	.	-1.8%	-1.1	11%	3%
Cc1ccc(F)cc1NC(=O)C12CC3CC(C1)CC(n1cnc([N+](=O)[O-])n1)(C3)C2	-0.8	-21%	0.9%	-1.7%	1.1	24%	-5%
CCC1(c2ccc(F)cc2)NC(=O)N(CC(=O)N2CCN(S(=O)(=O)c3ccc(Cl)cc3)CC2)C1=O (stereo not drawn)	-2.7	0%	-13%	-0.7%	.	.	-3%
Cc1ccc(C(=O)NCC2CCCO2)cc1S(=O)(=O)N1CCCCC1 (stereo not drawn)	-2.4	?	-5.9%	-3.1%	.	22%	2%
CN(CP(=O)(O)CCc1ccccc1)S(C)(=O)=O	0.4	11%	-1.3%	-1.1%	2.3	8%	8%
O=C(Nc1ccccc1)ON=C1CCCC1	-4.0	17%	?	2.1%	-0.3	10%	12%
Cc1nn(-c2ccccc2)c(C)c1/C=N/Nc1nc2ccccc2[nH]1	-2.6	6%	.	-1.3%	0.1	-7%	-29%
OC(c1cccc(Cl)c1)c1ncc(-c2ccccc2Cl)[nH]1 (stereo not drawn)	-0.1	.	-2.3%	5.6%	.	.	.
CC1(C(=O)NS(=O)(=O)c2ccccc2)CCN1C(=O)CC1CC1 (stereo not drawn)	-7.2	.	-0.6%	-0.1%	.	.	.
NC(=O)c1ccccc1OCC(=O)NS(=O)(=O)c1ccccc1	0.0	-4%	-8.1%	2.5%[38.3 µM]	1.8	29%	13%
Cc1c(NC(=O)c2nn(C(C)C)c(=O)c3ccccc23)c(=O)n(-c2ccccc2)n1C	-3.8	1%	0.7%	0.8%	.	.	.
CCN(C(=O)C=Cc1ccco1)c1ccccc1	-2.1	-15%	.	-2.3%	.	.	1%
O=C(Nc1nnc(-c2ccc(F)cc2)s1)c1ccco1	0.8	30%	.	1.8%	1.5	-1%	-22%
CCOC(=O)c1cc2c(c(-c3ccccc3)n1)[C@@H](CCO)N(S(=O)(=O)C(C)(C)C)C2	1.1	.	0.7%	-0.1%	.	.	11%
CCn1ccnc1CN(C)Cc1cn(-c2cc(C)ccc2C)nc1-c1ccccc1	-5.1	9%[15.4 µM]	.	0.1%	7.7	?	-20%

An excerpt from above in order of formula weight, highest first.
SMILES	D2 agonist	gsp agonist	ClpP mod	PINK1 modulator	Menin-MLL FL inh	Sfp PPTase inh	gsp antagonist
COc1ccc(Cn2c(CO)cnc2SCC(=O)Nc2cccc(NC(C)=O)c2)cc1	-5.2	4%	-1.5%	0.4%	.	-3%	4%
COc1cc(CC(=O)Nc2ccc(S(=O)(=O)N(C)C)cc2)cc(OC)c1OC	-1.1	-12%	-0.3%	3.0%[38.3 µM]	-2.8	-28%	0%
C=CCn1c(C(CCCC)CC(O)COCCC)n[nH]c1=S (stereo not drawn)	-1.5	-68%[inhibitor]	1.2%	1.7%	-3.3	-17%	19%

Screening results as filed in PubChem BioAssay.
